Mtb MenB inh – blocks the Mycobacterium tuberculosis MenB enzyme; P9WNP5; MenB enzyme assay, absorbance read-out; some hits fall short of the stated cut; inhibition, %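 (about 12 µg/mL by stock and volumes)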; 0.43% of 100,000 active; AID 540299;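 active means mean of two replicates above 30%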;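 further: 0% = no compound and 100% = wells with inactive enzyme; the first replicate is given; strong numbers were not always called active; inactives centre near -10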
Target sequence (P9WNP5 whole entry, looked up): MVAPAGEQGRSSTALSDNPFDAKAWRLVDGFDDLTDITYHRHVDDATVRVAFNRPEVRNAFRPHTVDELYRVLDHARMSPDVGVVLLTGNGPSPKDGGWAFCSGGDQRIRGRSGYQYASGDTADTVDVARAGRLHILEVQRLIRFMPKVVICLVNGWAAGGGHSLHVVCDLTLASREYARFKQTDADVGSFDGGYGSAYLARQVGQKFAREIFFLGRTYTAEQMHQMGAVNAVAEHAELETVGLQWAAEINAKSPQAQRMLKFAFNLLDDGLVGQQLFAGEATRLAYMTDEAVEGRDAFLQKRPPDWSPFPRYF
PV pol inh – inhibitors of poliovirus RNA polymerase binding and polymerization; P03300; poliovirus polymerase elongation, fluorescence polarization; stronger effect = lower value; % elongation, % (compound at 16.7 µg/mL); 0.66% of 150,000 active; AID 588519; in the data active means % elongation below about 90%; further: some results filed as inactive read as strong as hits
MbtI inh – blocks the Mycobacterium tuberculosis siderophore enzyme MbtI | inhibition, %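 (about 17 µg/mL by stock and volumes)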 | 0.89% of 100,000 active | purified MbtI enzyme, fluorescence intensity read-out | P9WFX0;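 active means above 50% in both replicates, above 80% if mildly self-fluorescent; inactive means the rest, strongly fluorescent compounds included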;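 further: 0% = mean of negative and 100% = mean of positive controls; one replicate is shown; some compounds called inactive have numbers as strong as hits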
Target sequence (P9WFX0 whole entry, looked up): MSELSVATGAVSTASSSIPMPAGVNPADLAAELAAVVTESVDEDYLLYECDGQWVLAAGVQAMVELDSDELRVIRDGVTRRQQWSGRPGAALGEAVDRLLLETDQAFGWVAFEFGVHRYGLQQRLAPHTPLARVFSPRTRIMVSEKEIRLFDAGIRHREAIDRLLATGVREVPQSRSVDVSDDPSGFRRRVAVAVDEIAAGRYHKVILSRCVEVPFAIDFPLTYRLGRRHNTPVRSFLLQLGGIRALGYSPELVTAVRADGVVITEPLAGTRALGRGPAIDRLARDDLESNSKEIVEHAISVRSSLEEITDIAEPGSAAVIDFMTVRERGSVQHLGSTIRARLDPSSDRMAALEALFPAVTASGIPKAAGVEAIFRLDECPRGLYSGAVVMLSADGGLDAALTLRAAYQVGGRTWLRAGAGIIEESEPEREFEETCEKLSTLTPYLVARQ
PV pol inh intensity – also measured in PV pol inh; calls as there; % elongation; measured here: total intensity read-out; formula for this scale not given here;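 total fluorescence in place of polarization; lower means less elongation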
An asterisk follows results filed as active; nt = no result given.

SMILES | Mtb MenB inh | PV pol inh | PV pol inh intensity | MbtI inh
CSc1scc2c1-c1nn(C(=O)c3ccc(Cl)cc3)cc1CC2 | -11 | 105 | 107 | 6
CN1c2ccccc2Sc2ccccc21 | -33 | 102 | 99 | -3
Cc1cccc(C2Nc3ccccc3C(=O)N2CCc2ccccc2)n1 (configuration not stated) | 2 | 108 | 105 | nt
COc1ccc(OCC(=O)N2CCN(C(=O)COc3ccccc3)CC2)cc1 | -17 | 104 | 104 | 0
CCCCC1(CC(=O)N2CCOCC2)C(=O)N(c2ccccc2)N(c2ccccc2)C1=O | -12 | 112 | 110 | nt
O=c1nc2scc(-c3ccccc3)n2c2ccccc12 | nt | 101 | 103 | 0
Cc1ccc(C(=O)NCCN(C)C)cc1NC1=NC2CS(=O)(=O)CC2S1 (configuration not stated) | -4 | 99 | 100 | -6
COc1ccc(CNC(=O)Cn2cc3c(n2)CCCC3)cc1 | -23 | 103 | 103 | -6
N#CC1(C#N)C(C#N)(C#N)C12CCCCC2 | -7 | 99 | 97 | -9
CC(C)CNC(=O)c1cc(-c2ccccc2O)no1 | -30 | 105 | 104 | -11
O=C(Nc1ccc(-c2ccccc2)cc1)c1ccccn1 | -11 | 101 | 102 | -29
CCNc1nc(NC(C)(C)C)nc(N2CCCCC2)n1 | -11 | 98 | 102 | 0
O=C(Nc1cc(Cl)ccc1C(=O)O)c1ccc(F)cc1 | nt | 104 | 103 | -12
Clc1nc(Cl)nc(NCCC2=CCCCC2)n1 | 17 | 78* | 76* | 8
CCN=C(Nc1cc(-c2ccccc2)[nH]n1)SC | 5 | 103 | 98 | 171
C[N+](C)(C)CCN1C(=O)CSC1=O | nt | 102 | 102 | -6
CC1(C)COC(c2ccc(C(C)(C)C)cc2)=N1 | -30 | 104 | 110 | -9
Cc1nn(-c2nc3ccccc3[nH]2)c(N)c1N=Nc1ccc(S(N)(=O)=O)cc1 | -100 | 102 | 106 | 1
O=C1CCCc2oc3c(c21)CCCC3 | -4 | 101 | 100 | 7
CC(Sc1nnc(-c2ccc(Cl)cc2)o1)C(=O)c1ccccc1 (configuration not stated) | -38 | 97 | 106 | -4
CCCCn1c(C(=O)OC)cc(=O)c2c(C)n(-c3ccccc3)c(=S)nc21 | -32 | 105 | 110 | nt
CCOc1ccc(-c2cn(C(=O)Nc3ccccc3)nc2N)cc1 | -11 | 103 | 102 | -20
Cc1sc2ncnc(Oc3cccnc3)c2c1C | 2 | 102 | 101 | -9
CN(Cc1ccc(OC(F)F)cc1)C(=O)Cn1cnc2ccccc2c1=O | 1 | 106 | 99 | 8
CS/C(N)=N/S(=O)(=O)c1ccc(C)cc1 | 19 | 100 | 101 | 4
COc1ccc(/C=C2\CCCC3=C2Nc2ncnn2C3c2ccc(OC)cc2)cc1 (configuration not stated) | -51 | 102 | 103 | -11
CC(NC(=O)OC(C)(C)C)c1nnc(SCC(=O)N(C)C)o1 (configuration not stated) | 1 | 105 | 103 | -5
O=C(NC1CCCCC1)N1CCN(c2ccccc2F)CC1 | 2 | 101 | 105 | -17
Cn1/c(=N/NC(=O)c2ccc(S(=O)(=O)N3CCCCC3)cc2)sc2ccccc21 | -5 | 108 | 109 | -5
CCCc1[nH]n(-c2ccccc2)c(=O)c1C(C)=NCc1ccc(S(N)(=O)=O)cc1 | -3 | 105 | 104 | -1
COc1ccc(C2CCCCC2)cc1 | nt | 104 | 109 | -14
CCOC(=O)c1[nH]c2ccc(OC)cc2c1NC(=S)N1CCCC1 | 3 | 100 | 101 | 23
CCSc1cc(C)[nH]c(=O)n1 | -2 | 102 | 105 | 18
COC(=O)c1sc2cccc(Cl)c2c1Cl | nt | 104 | 109 | 2
Cc1ccc(C)n1-c1cccc(C(=O)O)c1 | -30 | 34* | 51* | nt
C/C(=N/Nc1cccc2cccnc12)C(=O)O | -33 | 103 | 102 | -7
Cn1c(SCCO)nc2c(c1=O)C1(CCCCC1)Cc1ccccc1-2 | -7 | 102 | 102 | 16
O=C1CCC(C(=O)OCc2cc(=O)n3cc(Br)ccc3n2)=NN1 | 2 | 114 | 115 | -41
C=CCN(CC=C)C(=O)c1ccc(OC)c(Br)c1 | -3 | 100 | 101 | -3
COc1cc([C@@H]2c3cc4c(cc3[C@H](O)[C@H]3COC(=O)[C@H]23)OCO4)cc(OC)c1OC | -8 | 101 | 99 | -4
N/N=C1\CCCc2c1[nH]c1ccc(C(F)(F)F)cc21 | 1 | 105 | 108 | nt
O=C(N[C@H](CO)[C@@H](O)c1ccc([N+](=O)[O-])cc1)C(Cl)Cl | -8 | 101 | 106 | -7
COc1ccc(C(=O)OC2=C(c3ccccc3)C(=O)c3ccccc3C2=O)cc1 | -39 | 102 | 102 | 3
Cc1nc2c(c(C)c1CCC(=O)NCCc1ccco1)c(=O)n(C)c(=O)n2C | -4 | 98 | 104 | -4
Cc1oc(-c2ccccc2)cc1C(=O)NC1CCN(Cc2ccccc2)CC1 | 10 | 102 | 94 | -1
CC1(C)O[C@@H]2CC3C4C[C@H](F)C5=CC(=O)CC[C@]5(C)C4[C@@H](O)C[C@]3(C)[C@]2(C(=O)CO)O1 (some centres not stated) | -18 | 103 | 99 | -8
O=C(Nc1nc2cc3c(cc2s1)OCCO3)c1ccncc1 | -22 | 105 | 111 | -14
CS(=O)(=O)N/N=C/c1ccccc1 | -13 | 99 | 101 | 15
C=CCNC(=O)c1c(N)n(Cc2ccccc2)c2nc3ccccc3nc12 | nt | 102 | 106 | 37
Nc1c(N2CCOCC2)c2ccccc2oc1=O | -1 | 103 | 106 | 5
COc1ccc(S(N)(=O)=O)cc1C(=O)OC1CCCCC1=O (configuration not stated) | -13 | 97 | 105 | 6
Cc1c(C(=O)O)oc2ccc(S(=O)(=O)N3CCCC3)cc12 | -10 | 103 | 103 | -9
COc1ccc(S(=O)(=O)N2c3cc(F)ccc3CCC2C)cc1OC (configuration not stated) | 19 | 104 | 102 | 1
O=c1oc2ccccc2c(N2CCCC2)c1CN1CCCC1 | -19 | 101 | 100 | 14
O=C(NCc1ccccc1)NC1=NCCS1 | -19 | nt | nt | -1
CCCn1c(C)cc(C)c(C#N)c1=O | 12 | 104 | 98 | 43
COc1ccc2nc(/C(N)=N/O)sc2c1 | 1 | 103 | 108 | nt
CC(C)(CO)C12CC3CC(CC(C3)C1)C2 | 6 | 105 | 107 | -12
C=CCNc1nc(N2CCCC2)nc2ccccc12 | 1 | 99 | 103 | -381
Nc1ncnc2nc(SCC(=O)O)[nH]c12 | -7 | 100 | 103 | -8
Later entries
SMILES | Mtb MenB inh | PV pol inh | PV pol inh intensity | MbtI inh
S=c1[nH]nc(C2COc3ccccc3O2)n1-c1ccccc1 (configuration not stated) | -19 | 100 | 101 | 32
C/C=C/C(=O)N1c2ccccc2C(C)=CC1(C)C | -29 | 105 | 101 | -1
COc1ccc(OC)c(/C=C2\CC(c3ccccc3)C/C(=C\c3cc(OC)ccc3OC)C2=O)c1 (configuration not stated) | -27 | 102 | 104 | -2
Nc1ccc(C(=O)OCCCc2nc3cc4ccccc4cc3[nH]2)cc1 | 4 | 101 | 101 | -46
CCOC(=O)N1CCC(=NNC(=O)Cn2nnc3ccccc32)CC1 | -5 | 103 | 102 | -1
CCc1ccc(C(=O)Cn2c(NCCO)nc3ccccc32)cc1 | 5 | 105 | 105 | -8
CC1(C)CC(=O)C2=C(C1)NC(=O)CC2C(=O)Nc1ccc(F)c(Cl)c1 (configuration not stated) | -21 | 102 | 102 | -3
O=C(CSc1ncnc2c1cnn2-c1ccc(F)cc1)Nc1ccc2c(c1)OCO2 | -24 | 103 | 108 | 3
Cc1nc2nc(Cc3ccccc3)[nH]n2c(=O)c1Cc1ccccc1 | 1 | 100 | 94 | -12
O=C(c1ccn(C(=O)c2ccccc2)n1)N1CCOCC1 | -18 | 100 | 100 | -6
COc1ccc2c(c1)c(C(=O)CN(C)C)c(C)n2C | 13 | 100 | 101 | 13
O=C(CC(c1ccc(F)cc1)N1Cc2ccccc2C1=O)N1CCCCC1 (configuration not stated) | -11 | 103 | 103 | -22
COc1ccc(C(=O)NCC#N)cc1 | -8 | 101 | 100 | 8
COC1(c2ccc(Cl)cc2)OC(=O)c2ccccc21 (configuration not stated) | -3 | 102 | 106 | -9
CCOc1ccc(C(=O)CSc2nnc(-c3ccco3)c(-c3ccco3)n2)cc1NC(=O)CC | 62* | 100 | 97 | 94*
CCOc1ccc(C(O)c2nc3ccccc3n2C)cc1 (configuration not stated) | nt | 102 | 108 | -10
O=c1cc(CSc2nnc(COc3ccccc3Cl)n2C2CC2)nc2sccn12 | -8 | nt | nt | 5
FC(F)(F)c1ccc(N=Cc2cccs2)cc1 | nt | 103 | 105 | -13
O=C(c1cncc(Br)c1)N1CCSc2ccccc21 | -21 | 100 | 105 | -9
CC(CNC(=O)c1nnc(Cc2ccc(F)cc2Cl)o1)c1ccccc1 (configuration not stated) | 3 | 102 | 101 | -11
O=C1COc2ccc(C(=O)COC(=O)c3ccc4c(c3)C(=O)N(Cc3ccco3)C4=O)cc2N1 | -19 | 102 | 106 | -3
CN1C(=O)c2cccc(NC(=O)CSc3ccc(F)cc3)c2C1=O | -18 | 108 | 107 | 74
COc1ccc(C(=O)NCc2cc3ccccc3n2C)cc1 | -15 | 101 | 101 | -10
O=C(Cn1ncc2c([nH]c3ccccc32)c1=O)N1CCc2ccccc21 | -9 | 104 | 102 | 8
CCOCCOc1cccc2oc(C(=O)OCC)cc(=O)c12 | -15 | 105 | 105 | -24
NC(N)=N/N=C\c1c(Cl)cccc1Cl | -19 | 99 | 102 | 0
COc1cc(CCC(=O)NCc2ccco2)on1 | 7 | 100 | 103 | -15
CC(=O)NC(NC(C)=O)C(=O)c1ccccc1 | 3 | 103 | 102 | -4
Cc1ccc(S(=O)(=O)Nc2cccc(C)c2)cc1 | -25 | 104 | 104 | -6
CC(C)c1ccc(CNC(=O)CCc2ccccc2)cc1 | -16 | 101 | 102 | -2
COCCNC(=O)c1c(N)n(Cc2ccccc2)c2nc3ccccc3nc12 | -59 | 99 | 108 | 111
CCc1c(O)nc(SC(C)C(=O)Nc2cccc(Cl)c2)[nH]c1=O (configuration not stated) | -15 | 100 | 103 | 32
CSc1nsc(SCC(=O)N2CCCc3ccccc32)n1 | -15 | 103 | 106 | -14
COc1ccccc1S(=O)(=O)N(C)S(=O)(=O)c1cc(Cl)ccc1Cl | 5 | 101 | 101 | 12
COC1C2C3CC4C5C3C1C5C(O)(c1ccccc1)C42 (configuration not stated) | -57 | 101 | 104 | -10
CCCCC(CC)C(=O)Nc1c2c(nc3c1CCC3)CCCC2 (configuration not stated) | -18 | 101 | 107 | -8
Cc1ccccc1/C(N)=N\O | nt | 102 | 100 | -10
Cc1cc2nc3c(=O)[nH]c(=O)[nH]c3nc2cc1N=Cc1c(O)n(Cc2ccccc2)c(=O)[nH]c1=O | -42 | 92 | 114 | -5
Cc1cccc(N2C(=O)CC(Sc3ncn[nH]3)C2=O)c1 (configuration not stated) | 10 | 97 | 101 | 99*
CCCNC(=O)C1CC(c2ccc(F)cc2)=NO1 (configuration not stated) | -3 | 104 | 105 | 3
Oc1ccccc1C1Nc2ccccc2-c2nc3ccccc3n21 (configuration not stated) | -5 | 100 | 104 | 110
CC(=O)Nc1nc(-c2cccnc2)cs1 | -27 | 100 | 104 | 4
CCN1CCC(N(Cc2ccco2)C(=O)Nc2ccc(OC)cc2)CC1 | -3 | 103 | 103 | -3
Cc1ccc(NC(=O)c2oc3ccc4c(c3c2C)C(=O)CC(C)(C)O4)cc1 | -2 | 101 | 97 | 1
Cc1ccccc1NC(=O)Nc1ccccc1C | -12 | 102 | 112 | -7
O=C(CCSc1ccc(Cl)cc1)N1CCN(c2ccc(O)cc2)CC1 | 2 | 105 | 101 | 18
O=C(O)CC(C(=O)Nc1ccc(Cl)cc1)N1CCCCCC1 (configuration not stated) | -13 | 103 | 103 | -3
CCS(=O)(=O)c1ccc(O)c(N=Cc2ccncc2)c1 | 6 | 103 | 103 | 17
Cc1cc(C)cc(NC(=S)N2CCC(N(C)CC3CCCO3)CC2)c1 (configuration not stated) | 2 | 99 | 102 | -13

Screening data (PubChem BioAssay)
